Screening data as filed in PubChem BioAssay.
Tgondii IFNg: inhibitors of Toxoplasma gondii growth with IFN-gamma | Toxoplasma gondii growth in IFN-gamma-treated host cells; active compounds read low; reference of the scale not given here | activity change, negative = inhibition, %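 (about 20 µM by stock and volumes)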 | 3.8% of 69,000 active | AID 1259416;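 active means below -70%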;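 further: host cells are HeLa cells infected with Toxoplasma gondii; parasite growth read as luciferase light; one replicate is shown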
* = called active by the depositor; i = inactive; & = joins results of further samples. The list is partial, so the mix of outcomes need not match the whole.

SMILES	Tgondii IFNg
Cc1oc(-c2ccc(Cl)cc2)nc1Cn1nnc(C(=O)Nc2ccccc2)c1C	194.6
CCC(=O)N[C@@H]1CC[C@@H](CC(=O)NCc2ccccc2F)O[C@H]1CO	26.9
Cc1nc(C)c(CC(=O)N(C)Cc2ccc(C)o2)c(=O)[nH]1	1.7
CCN(CC)c1ncnc2c1cnn2CC(=O)Nc1cc(C)ccc1OC	-11.7
CC1CCN(S(=O)(=O)N2CCN(c3nccs3)CC2)CC1	-10.7
N#C[C@H]1[C@@H](c2ccccc2-c2ccccc2)[C@H](CO)N1C(=O)Cc1ccncc1	-27.4
Cc1cc(NC(=O)CSc2nnc(COc3ccc(Cl)cc3)n2C)no1	-9.2
CCCCn1nc(C)c2c1NC(=O)CC2C1CCNCC1 (stereo unspecified)	-37.2
Cc1nnc(-c2cccc(-c3c(C)cccc3C)c2)o1	-47.9
CC(C)CNC(=O)[C@@H]1CCS(=O)(=O)[C@H]2CN(Cc3ccccc3F)C[C@@H]12	9.5
Cc1cc(C)cc(NC(=O)N2CCC3(CC2)NC(=O)c2ccccc2N3C)c1	-27.8
Cn1cccc1C(=O)N1CCN2C[C@H](Oc3cccc(F)c3)C[C@@H]2C1	1.9
O=C([C@H]1N[C@H]2c3ccc(/C=C/c4ccccc4)c(=O)n3C[C@H]2[C@@H]1CO)N1CCCCC1	-49.0
COC(=O)c1c(NCc2ccc(F)cc2)c2cccc(Cl)c2[nH]c1=O	-87.7*
CN(C)c1ccc(CCNS(=O)(=O)N2CCCC2)cc1	-9.8
Cc1noc(C)c1NC(=O)c1cccc(CN2CCC3(CC2)CNC(=O)O3)c1	0.9
O=C(NCCc1csc(-c2ccccc2)n1)[C@H]1CCCN1C(=O)c1ccco1	14.5
COc1ccc(-c2ccc3n(c2=O)C[C@@H]2[C@@H](CO)[C@H](C(=O)NCC4CC4)N(C(=O)NC(C)C)[C@H]32)cc1	2.8
CCOc1ccc(-c2nnc(OCC)c3ccccc23)cc1	-14.2
CC(C)(C)c1[nH]cnc1/C=c1\[nH]c(=O)/c(=C/c2ccccc2)[nH]c1=O	-87.2*
CC(C)NC(=O)N1CCC2(CC1)OCCN(CCO)c1ccccc12	-23.0
COCCN1CCc2c(cnc(-c3cccnc3)c2C(=O)O)C1	-53.1
CCOc1ccc(NC(=O)NCC(c2cccnc2)c2cn(C)c3ccccc23)cc1 (stereo unspecified)	i
Cc1cnn(Cc2nc(-c3ccc(NC(=O)c4ccccc4)cc3)oc2C)c1	-38.4
CC(=O)c1cc(C(=O)NCCCN2CCCc3ccccc32)cs1	-1.7
O=C(c1cc2cccnc2n(Cc2ccc(F)cc2)c1=O)N1CCCCC1	-5.8
CCNC(=O)c1ccc2ccc(N(C)c3ccccc3)n2c1	-3.6
COc1cc2c(cc1-c1nccn1Cc1cc(C(C)C)no1)CCC2	3.0
Cc1onc(-c2c(Cl)cccc2Cl)c1C(=O)N(C(C)C)C(C)C	38.0
O=C(Nc1cccc(Cl)c1)N[C@H]1CC[C@H](CCn2cc(Cc3ccccc3)nn2)O[C@H]1CO	-40.2
CN(Cc1ccccn1)C(=O)C1=NOC2(CCN(S(=O)(=O)c3ccc(F)cc3)C2)C1 (stereo unspecified)	-79.9*
O=C(c1ccc[nH]c1=O)N1CCC2(CCCO2)CC1	1.4
FC(F)(F)c1cccc(C2c3[nH]c4ccccc4c3CCN2Cc2ccn[nH]2)c1 (stereo unspecified)	20.9
N[C@@H]1c2ccccc2C2(CCN(C(=O)c3nccc4ccccc34)CC2)[C@H]1O	-2.7
CCCCC(=O)N(Cc1ccc(-c2ccccc2-c2nn[nH]n2)cc1)[C@H](C(=O)O)C(C)C	15.3&12.9
O=C(NCCc1c[nH]c2ccc(Cl)cc12)c1cccs1	11.0
CCc1ccc(NC(=O)Cn2c(=O)cc(C(=O)N3CCC(C)CC3)c3ccccc32)cc1	-26.7
COc1cccc(C#Cc2ccc([C@H]3[C@@H](C#N)N(C(=O)c4ccccn4)[C@@H]3CO)cc2)c1	-46.7
O=C(CCN1CCCCC1)N[C@H]1CC[C@H](CC(=O)N2CCC(Cc3ccccc3)CC2)O[C@@H]1CO	-8.1
CC1=C(C(=O)N2CCc3sccc3C2)C(C)NC(=O)N1 (stereo unspecified)	-5.2

6 entries from above, reformatted.
structure | Tgondii IFNg
COc1cc2c(cc1-c1nccn1Cc1cc(C(C)C)no1)CCC2 | 3.0
Cc1onc(-c2c(Cl)cccc2Cl)c1C(=O)N(C(C)C)C(C)C | 38.0
O=C(Nc1cccc(Cl)c1)N[C@H]1CC[C@H](CCn2cc(Cc3ccccc3)nn2)O[C@H]1CO | -40.2
CN(Cc1ccccn1)C(=O)C1=NOC2(CCN(S(=O)(=O)c3ccc(F)cc3)C2)C1 (stereo unspecified) | -79.9*
O=C(c1ccc[nH]c1=O)N1CCC2(CCCO2)CC1 | 1.4
FC(F)(F)c1cccc(C2c3[nH]c4ccccc4c3CCN2Cc2ccn[nH]2)c1 (stereo unspecified) | 20.9

Next results follow:
SMILES	Tgondii IFNg
CCS(=O)(=O)Nc1ccc2c(c1)C(=O)N(C)C[C@H](OC)[C@@H](C)CN(CC1CCCCC1)[C@H](C)CO2	-4.8
CCOc1ccc(CNC(=O)CN2C(=O)CCc3cc(Br)ccc32)cc1	19.2
Cc1nc(NC(=O)C(c2ccc(F)cc2)N2CCOCC2)nn1C (stereo unspecified)	73.5
O=C(c1cc2sccc2[nH]1)N1CCCC(Cn2ccnc2)C1 (stereo unspecified)	-10.6
O=C(c1cnn2ccccc12)N1C[C@H]2C[C@H](O)[C@H](O)C[C@H]2C1	-3.3
Cc1nc(C)n(CC(=O)Nc2ccc3c(c2)CN(Cc2ccccc2)C3)n1	1.5
Cc1c(C(=S)Nc2ccccc2Cl)sc2ccccc12	i
O=C(NC1CCCCC1)C(c1ccccc1)N(CCc1ccccc1)C(=O)c1cnsn1 (stereo unspecified)	-51.6
Cc1nonc1CN(C)C(=O)c1cc(-c2ccncc2)nc2c(C)cccc12	-30.6
Cc1ccc(CNC(=O)Nc2ccc(-c3nc(-c4cc(C)ccc4C)co3)cc2)cc1	12.7
CC(=O)Nc1ccc(-c2nc(-c3cc(C)ccc3C)co2)cc1	156.3
O=C1CN(C(=O)C2CC3(CCNCC3)CN2)CCN1CCc1ccccc1 (stereo unspecified)	75.7
CC(C)c1nnsc1CN1CCCC2(CC1)CN(C)C(=O)O2 (stereo unspecified)	0.3
CN(C)CCN1C(=O)c2ccccc2N(C)c2ccccc21	9.3
CNC(=O)[C@H]1CC[C@H]2[C@@H](CCN2c2ccc(C)nn2)O1	44.7
CC(C)c1cc(C(=O)O)nn1C1CCS(=O)(=O)C1 (stereo unspecified)	12.8
Cc1cc(-c2cnc(N(C)C)nc2C2CCCN2C(=O)CSc2nc(C)c(C)o2)on1 (stereo unspecified)	4.4
COCCn1cncc1Cn1cnc(-c2ccccc2)c1-c1ccsc1	2.9
CN1C(=O)C2(CCCN(CCCc3cccnc3)C2)c2ccccc21 (stereo unspecified)	9.5
CCc1nccc(-c2c(-c3ccccc3)ncn2CC2(CO)CCOCC2)n1	-82.6*
COc1ccc(CN2CCc3nc(NC(C)C)nc(N(C)C)c3C2)cc1	-21.2
C=CCN1C(=O)C2(NCCc3c2[nH]c2ccc(C)cc32)c2ccccc21 (stereo unspecified)	111.7
COc1cccc(-n2c(=O)c(C(=O)Nc3ccc(F)c(C)c3)c(O)c3cccnc32)c1	27.9
C[C@H](CO)N1C[C@H](C)[C@@H](CN(C)Cc2ccncc2)OCCCC[C@H](C)Oc2ccc(NC(=O)Cc3ccccc3)cc2C1=O	132.7
COc1cc2c(cc1OC)C(c1cc3cc4c(cc3[nH]c1=O)OCO4)NCC2 (stereo unspecified)	78.9
COc1ccc(-c2nc(NCc3cccnc3)c3ccccc3n2)cc1	-41.6
O=C(C[C@H]1C=C[C@@H](NC(=O)Nc2ccccc2F)[C@@H](CO)O1)NCc1ccc(-c2ccccc2)cc1	-16.6
O=C(Nc1ccc(-c2ccco2)cc1)C1CCCN(C(=O)c2ccccc2-n2cccn2)C1 (stereo unspecified)	4.8
Cc1cccc(CN2CC[C@]3(CCC[C@@H]3C(=O)N3CCOCC3)C2)n1	-22.7
O=c1c2ccccc2oc2cc(O)ccc12	49.4
CC(C)Nc1cc(N2CCCC(c3ccn[nH]3)C2)ncn1 (stereo unspecified)	35.3
CCC(c1cccnc1)N(C)C(=O)Cc1ccc(F)c(F)c1F (stereo unspecified)	-4.9
NC(=O)Cc1csc(NC(=O)c2cnn3c(-c4ccccc4)ccnc23)n1	108.3
C[C@@H]1CN([C@H](C)CO)C(=O)c2cc(NS(=O)(=O)c3ccc(F)cc3)ccc2O[C@H]1CN(C)C(=O)Nc1ccccc1	-17.6
Cc1nc(C(C)N(C)Cc2ccc(-c3ccn[nH]3)o2)c(C)s1 (stereo unspecified)	15.1
CCC1=NOC(Cn2c(=O)n(C(CC)CC)c3ncc(C(=O)O)cc32)C1 (stereo unspecified)	-2.0
COc1ccc(C(=O)Nc2ccc(N3CCCC3)cc2)cc1OC	-5.2
O=C1CCc2cc(S(=O)(=O)NCCC(c3ccccc3)c3ccccc3)cc3c2N1CCC3	-30.6
Cc1ccc(N2CCO[C@H]3CN(C(=O)c4ccoc4)CC[C@@H]3C2)nn1	7.6
COCC1CN(Cc2ccc(C)o2)Cc2nccn2C1 (stereo unspecified)	4.1
CN1C(C)(C)CC(Nc2nc(-c3ccccn3)nc3c2CCNC3)CC1(C)C	-4.1
CCOc1ccc(C(=O)N2CCC(C(=O)NCCc3csc(C)n3)CC2)cc1	24.1
Cc1ccc(NC(=O)C(=O)NCCc2sc(-c3ccc(F)cc3)nc2C)cc1	76.4
O=C(CC1CCN(c2ncccn2)CC1)Nc1nccs1	27.4
Cc1nc(SC(C)C(=O)N2CCN(c3nccs3)CC2)[nH]c(=O)c1C (stereo unspecified)	9.8
COc1cccc(OCc2cc(C(=O)NC[C@H]3CCCN3)n[nH]2)c1	4.4
Cc1cccc(CN2CCc3onc(CN(C)C)c3C2)n1	-2.0
CN1CCCC(CN2CCN(Cc3cc4n(n3)CCCNC4)CC2)C1 (stereo unspecified)	2.5
CO[C@@H]1CN(C)C(=O)c2cc(NC(=O)C3CCOCC3)ccc2OC[C@H](C)NC[C@H]1C	6.8
COC(=O)C[C@@H]1CC[C@H]2[C@@H](COc3ccc(NC(=O)c4ccc(C(F)(F)F)cc4)cc3C(=O)N2C)O1	14.4
(further entries)
SMILES	Tgondii IFNg
CC(NC(=O)c1cc(COc2ccc(F)cc2)on1)c1ccc2c(c1)OCCO2 (stereo unspecified)	-22.1
c1cc2c(-c3ccc(CN4CCOCC4)cn3)cc(NC3CCCC3)nc2[nH]1	-22.7
O=C(O)c1ccc(Cn2ccc3ccccc32)o1	-29.3
O=C(c1cc2c([nH]1)CCCC2)N1CCC(CCN2CCOCC2)CC1	-7.2
C=CCN(Cc1ccccc1C)C(=O)Cc1ccc(O)c(Cl)c1	-6.0
O=C(Nc1cccc(Cl)c1)N1C[C@@H]2[C@H](c3ccccc31)[C@@H](CO)N2Cc1cccnc1	-34.7
Cc1ccc(-c2nc(Cn3ccn4nc(-c5ccc(C)c(C)c5)cc4c3=O)c(C)o2)cc1	-23.4
O=C(NC1CCS(=O)(=O)C1)c1cc(-c2ccc(Cl)cc2)oc1C(F)(F)F (stereo unspecified)	-34.9
COc1cccc(C(NC(=O)c2ccco2)c2nccn2C)c1OC (stereo unspecified)	-4.6
O=S(=O)(Nc1ncccn1)c1ccc(C(F)(F)F)cc1Cl	-9.9

Another view of six compounds above.
| SMILES | Tgondii IFNg |
| --- | --- |
| Cc1ccc(-c2nc(Cn3ccn4nc(-c5ccc(C)c(C)c5)cc4c3=O)c(C)o2)cc1 | -23.4 |
| O=C(c1cc2c([nH]1)CCCC2)N1CCC(CCN2CCOCC2)CC1 | -7.2 |
| O=S(=O)(Nc1ncccn1)c1ccc(C(F)(F)F)cc1Cl | -9.9 |
| C=CCN(Cc1ccccc1C)C(=O)Cc1ccc(O)c(Cl)c1 | -6.0 |
| O=C(Nc1cccc(Cl)c1)N1C[C@@H]2[C@H](c3ccccc31)[C@@H](CO)N2Cc1cccnc1 | -34.7 |
| c1cc2c(-c3ccc(CN4CCOCC4)cn3)cc(NC3CCCC3)nc2[nH]1 | -22.7 |

Remaining list, next part
SMILES	Tgondii IFNg
CO[C@@H]1CC[C@@H]2[C@H]1OCCN2C(=O)/C=C/c1cccs1	8.8
O=C(O)CC1N=C(Nc2nc3ccccc3o2)NC1=O (stereo unspecified)	10.1
O=C(CCN1CCCCC1)N[C@H]1CC[C@@H](CC(=O)N2CCC(Cc3ccccc3)CC2)O[C@@H]1CO	-38.8
CCc1cnc(N2CCC3(CC2)COc2ccccc2S(=O)(=O)N(CCOC)C3)nc1	-9.6
COc1ccc(CN(C)C[C@H]2OCc3cnnn3CCCC(=O)N([C@H](C)CO)C[C@H]2C)cc1	15.3
O=C1CCCN1[C@H]1CN(C(=O)Cc2ccccc2)[C@H]2CCCO[C@@H]12	34.9
O=C(C1c2ccccc2-c2ccccc21)N1CCC(c2ccncc2)CC1	-8.3
CC(C)OC(=O)OCOP(=O)(CO[C@H](C)Cn1cnc2c(N)ncnc21)OCOC(=O)OC(C)C	-77.8*
O=C(NCc1cnn2ccccc12)c1ccccc1Cl	-3.5
Cc1cc(C)n(C(C)CC(=O)N2CCCC3(CNC(=O)c4ccccc4O3)C2)n1 (stereo unspecified)	-8.5
CCN1C(=O)[C@@H]2CN(CC(C)C)C[C@@H]2C12CCN(C(=O)c1ccno1)CC2	-40.8
CC1(C)CC(N(Cc2ccccn2)CC2CCOC2)CC(C)(C)N1 (stereo unspecified)	-19.6
CCn1nc(C)cc1C(=O)N1C[C@H](OC)[C@@H]2OCCC[C@@H]21	-2.6&1.9
COCCNC(=O)C(c1ccco1)N(C(=O)Cn1nnc2ccccc21)c1ccccc1 (stereo unspecified)	5.6
O=C(NC1CC1)C1CN(Cc2cnn(-c3cccc(F)c3)c2)CCN1 (stereo unspecified)	-0.1
O=C(CN1CCOCC1)N1CCCCN2[C@H](C1)[C@H](c1ccc(Br)cc1)[C@@H]2CO	-33.7
Cn1c(=O)c(-c2nc(-c3ccccc3F)no2)c(O)c2cc(F)ccc21	18.1
